Source: PubChem BioAssay
HCMV NEC inh: inhibitors of HCMV UL50-UL53 nuclear egress complex interaction; HTRF UL50-UL53 interaction, normalized percent inhibition; inhibition, % (concentration not given with the values); 190,000 tested, 0.15% active;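 active = both replicates at 50% or more, plus weaker picks with an unusually low signal ratio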;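 note: stock transfer was 100 nL into about 20 µL; 0% = negative control wells and 100% = wells with untagged competitor protein; inactives centre near -12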
Sa growth 42C: S. aureus growth inhibition; S. aureus RN4220 growth, OD600, 20 h, 42 °C; stronger effect = lower value; AID 720641; relative growth, % (test concentration not listed); 170,000 tested, 0.53% active;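 active = growth at 42 °C up to 50% and 20 or more points under that at 30 °C, or under 10% at both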;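 note: 300 nL library stock went into each well; scaled to the means of positive and negative controls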
GIV-Gai inh: blocks GIV peptide binding to rat Galpha-i3; P08753; Galpha-i3/FITC-GIV peptide fluorescence polarization, 90 min; stronger effect = lower value; scaled: aluminum fluoride 0%, vehicle 100%; percent of control (FP), % (no concentration beside the values); 210,000 tested, 0.42% active; AID 1224905;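 active = replicate mean at 85% of control or lower, very high polarization wells dropped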;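 note: wells of about 15 µL received 100 nL stock; the first replicate is given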
Target sequence (P08753 whole entry, looked up): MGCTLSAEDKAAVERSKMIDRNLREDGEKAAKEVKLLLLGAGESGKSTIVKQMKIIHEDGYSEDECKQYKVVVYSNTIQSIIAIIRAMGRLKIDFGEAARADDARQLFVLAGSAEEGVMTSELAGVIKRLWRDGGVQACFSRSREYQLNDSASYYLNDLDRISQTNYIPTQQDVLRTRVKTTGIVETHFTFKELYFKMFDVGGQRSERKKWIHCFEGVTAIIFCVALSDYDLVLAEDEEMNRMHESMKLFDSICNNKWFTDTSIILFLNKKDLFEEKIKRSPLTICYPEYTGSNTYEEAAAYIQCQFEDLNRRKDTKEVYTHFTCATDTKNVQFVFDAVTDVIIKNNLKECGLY
Sa growth 42C second temp: further read-out of Sa growth 42C, marked with its call; relative growth, %; measured here: growth at 30 °C;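 optical density after 20 h as mean of two plates; 100% = untreated growth and lower means inhibition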
Active calls of the source: *; x = no result given. Rows are unselected; any-hit rate near 0.83%.

Start of the data: the first 2 records, to show the layout:
SMILES	HCMV NEC inh	Sa growth 42C	Sa growth 42C second temp	GIV-Gai inh
COc1cccc(NC(=O)Cn2c(=O)n(Cc3ccc(C(=O)NCc4ccc5c(c4)OCO5)cc3)c(=O)c3ccccc32)c1	2	108	91	105
COc1ccccc1CNc1nc(-c2cc(OC)c(OC)c(OC)c2)nc2ccccc12	1	x	x	101

Main list, previewed entries included:
SMILES	HCMV NEC inh	Sa growth 42C	Sa growth 42C second temp	GIV-Gai inh
COc1cccc(NC(=O)Cn2c(=O)n(Cc3ccc(C(=O)NCc4ccc5c(c4)OCO5)cc3)c(=O)c3ccccc32)c1	2	108	91	105
COc1ccccc1CNc1nc(-c2cc(OC)c(OC)c(OC)c2)nc2ccccc12	1	x	x	101
CCN(Cc1ccc2c(c1)OCO2)C(=O)c1cc(F)c(F)cc1Cl	-37	85	87	x
C=CCn1c(-c2nonc2NC(=O)c2ccccc2Cl)nc2ccccc21	-20	93	82	99
Cc1cccc(CNC(=O)Cc2ccc(NC(=O)N3CCCCc4ccccc43)cc2)c1	x	114	91	98
Cc1nc(/N=C(/N)NC(=O)c2ccccc2)nc2ccccc12	x	87	93	102
O=C(Cn1ncc2ccccc21)N1CCc2ccccc2C1	x	90	89	98
C=CCn1c(SCC(=O)N2CCN(c3ccc(F)cc3)CC2)nnc1-c1ccco1	-8	114	75	x
Cn1c(SCC(=O)OCC(=O)c2ccc(Br)cc2)nc2c1c(=O)[nH]c(=O)n2C	-4	92	44	x
COc1ccc(S(=O)(=O)c2cc3cc(C(C)(C)C)cc(O)c3oc2=O)cc1	-16	82	74	97
COc1cc(/C=C2\C(=O)NC(=O)N(C)C2=O)ccc1OCc1ccc(C(=O)O)cc1	0	x	x	107
CNS(=O)(=O)c1cn(CC(=O)NCc2ccccn2)cc1S(=O)(=O)NC	-26	92	86	102
CCOC(=O)c1ccc2nc(C(F)(F)F)nc(NCCc3ccc(OC)cc3)c2c1	x	107	76	109
Cc1n[nH]c(C)c1S(=O)(=O)Nc1ccc(S(=O)(=O)N2CCCCCC2)cc1	-22	95	86	x
O=C(COc1ccccc1Br)Nn1c(=S)[nH]c2ccccc2c1=O	x	111	78	100
CCOC(=O)C1CCN(C(=O)Nc2ccccc2)CC1	4	96	92	x
CC(=O)N1c2ccc(S(=O)(=O)N3CCCCC3)cc2CC1C(=O)N1CCc2ccccc2C1 (stereo unspecified)	-6	x	x	105
N=C(N)N=Nc1ccc(NN=C(N)N)cc1	-3	78	91	x
O=C(OCC(=O)c1ccc[nH]1)c1ccc(CN2CCCC2=O)cc1	0	115	97	x
CCn1cnc(S(=O)(=O)N2CCC(C(=O)Nc3ccc4c(c3)OCO4)CC2)c1	-36	x	x	104
Cn1ncc(Br)c1C(=O)NN	2	88	106	x
COC(=O)c1ccccc1NC(=O)c1oc2ccc3c(c2c1C)C(=O)CC(C)(C)O3	x	117	85	108
Oc1ccccc1-c1cc(C(F)(F)C(F)F)no1	-29	1.5*	6.4*	100
CCn1c(SCc2nc3ccccc3[nH]2)nc2ccccc21	-3	103	68	108
O=C(NCc1ccco1)c1cc(-c2ccccc2)c(N2CCOCC2)s1	-18	88	88	111
CCn1c(=O)n(-c2ccc(F)cc2)c(=O)c2sc3ccccc3c21	-7	115	92	98
O=S1(=O)CCN(Cc2cccc(C(F)(F)F)c2)CC1	-3	x	x	101
O=C(O)COc1ccccc1C1Nc2ccccc2-c2nnc(SCc3ccc(Cl)cc3)nc2O1 (stereo unspecified)	-26	114	60	105
O=C(CSc1nc2ccccc2[nH]1)Nc1cccc(Oc2ccccc2)c1	-16	103	57	x
CC(=O)N1CCC(N(Cc2ccco2)C(=O)Nc2ccc(C)c(Cl)c2)CC1	x	104	96	101
CCc1nn2c(=O)cc(COC(=O)COc3ccc(OC)cc3)nc2s1	x	82	89	103
CCn1nnc2c(N3CCc4cc(OC)c(OC)cc4C3C)ncnc21 (stereo unspecified)	-19	93	74	101
Cn1c(=O)oc2cc(S(=O)(=O)N3CCCCC3)ccc21	x	93	94	105
O=C(NCc1ccc2c(c1)OCO2)c1ccc(Nc2ccc(-c3ccc(F)cc3)nn2)cc1	-14	x	x	103
O=S(=O)(Nc1cc(Sc2ncn[nH]2)c(O)c2ccccc12)c1cccs1	-1	109	82	105
COc1cccc(C(=O)Oc2ccc3c(c2)NC(C)(C)C=C3C)c1	3	94	94	x
COc1ccccc1NC(=O)CSc1nc(O)c(C/C=C/c2ccccc2)c(=O)[nH]1	-17	121	83	108
COc1ccc2c(c1)c(CC(=O)Nc1cccc(F)c1C)c(C)n2C(=O)c1ccc(Cl)cc1	3	95	100	102
COc1cc(/C=C2/SC(=S)N(CC(=O)O)C2=O)ccc1Oc1ccc([N+](=O)[O-])cc1[N+](=O)[O-]	-101	x	x	114
CCc1ccc(C(=O)c2cn(CC(=O)Nc3cccc(OC)c3)c3cc4c(cc3c2=O)OCO4)cc1	9	110	75	103
CC1CCCN(C(=O)CCCn2c(=O)c3cccn3c3ccc(Br)cc32)C1 (stereo unspecified)	-12	x	x	101
Cc1cc(N)n(-c2nc3ccccc3n2Cc2ccc(C#N)cc2)n1	-28	86	91	x
COc1cc(Cl)c(NC(=O)c2cc(S(=O)(=O)N3CCCCC3)c[nH]2)c(OC)c1	x	89	81	112
O=C(Cn1c(=O)n(Cc2cccs2)c(=O)c2cccnc21)Nc1ccccc1	-15	107	90	99
CCCCOC(=O)c1cccc(NC(=O)/C=C/c2ccccc2Cl)c1	-12	98	96	109
O=C(Nc1ccccc1)O/N=C/c1ccccc1	-1	68	74	100
COc1ccccc1N1CCN(C(=S)c2ccccc2OC(F)(F)F)CC1	x	83	83	104
NC(Cn1ccnc1)c1ccccc1 (stereo unspecified)	-8	91	91	x
CCc1cc2c(C)cc(=O)oc2cc1OC(=O)[C@@H]1CCCN1C(=O)OC(C)(C)C	-1	83	91	x
Cc1ccc(C)c(N2CCN(C(=O)CN3CCSc4ccccc43)CC2)c1	x	97	90	100
Cc1ccc(C(=O)Nc2ccc(Br)cc2)cc1S(=O)(=O)N1CCOCC1	x	89	96	106
COC(=O)CCC(=O)c1oc2ccc(Br)cc2c1N	-22	88	89	101
CCC(C)NC(=O)C1CCN(S(=O)(=O)c2cccc3nsnc23)CC1 (stereo unspecified)	-104	92	88	102
CC1CC(NC(=S)N(C)C)CC(C)(C)C1 (stereo unspecified)	30	117	83	100
Cc1cc(C(=O)COC(=O)Cc2n[nH]c(=O)c3ccccc23)c(C)n1-c1ccc2c(c1)OCO2	-22	96	96	x
CC(NC(=O)c1sc2ncccc2c1-n1cccc1)c1ccccc1 (stereo unspecified)	x	75	75	103

Additional records
SMILES	HCMV NEC inh	Sa growth 42C	Sa growth 42C second temp	GIV-Gai inh
CCc1nnc2sc(-c3ccc(N)cc3)nn12	x	104	67	107
CCN1CCN(c2c(S(=O)(=O)c3ccc(Cl)cc3)cnc3ccccc23)CC1	-32	105	77	101
COc1ccc(-c2nc3cc(C)ccn3c2NC(=O)c2ccc(C)c(C)c2)cc1	-22	102	96	110
O=C(NC(=S)Nc1ccc(-c2nc3ccccc3o2)cc1)c1cc2ccccc2o1	x	96	87	101
CCCC(=O)Nc1ccc2c(c1)COC2=O	-1	121	87	x
COc1cccn(CC(=O)NN)c1=O	-19	91	90	103
Cc1ccccc1CNC(=O)c1oc2ccc3c(c2c1C)C(O)CC(C)(C)O3 (stereo unspecified)	5	91	79	112
O=C(CSc1ncnc2ccccc12)NCc1ccco1	-38	89	84	101
Cc1cccc(-n2ccnc2SCC(=O)Nc2ccc(F)cc2F)c1C	x	94	91	97
CCOC(=O)N1CCc2c(sc3c2C(=O)NC(c2ccc(OCC)cc2)N3)C1 (stereo unspecified)	-27	98	87	104
CC(=O)N1c2ccccc2C2(O)N=C(c3ccccc3)SC12 (stereo unspecified)	-9	105	84	104
Cc1ccc(C(=O)COC(=O)c2cc(-c3ccccc3)nc3ccccc23)cc1C	8	98	106	101
COc1ccc(-c2nc3c(c(SCC(=O)Nc4ccccc4OC)n2)Cc2cccc(C)c2O3)cc1	-28	86	88	103
CN1C(=O)CC(C(=O)Nc2cccc(Cl)c2)SC1=Nc1cccc(C(F)(F)F)c1 (stereo unspecified)	6	x	x	102
Cc1cc(Nc2ccccc2F)n2ncnc2n1	5	x	x	109
O=C(Nc1ccc(Cl)cc1-c1nc2ccccc2s1)c1ccco1	-7	91	62	104
NC(=O)C1(c2ccccc2)CCC(=O)N1c1ccccc1 (stereo unspecified)	-16	95	91	101
COc1cc(C2C(C(=O)Nc3ccccc3C)=C(C)NC3=C2C(=O)CCC3)cc(OC)c1OC (stereo unspecified)	-6	x	x	105
CCc1ccc(OCCNC(=O)c2ccco2)cc1	-7	92	104	x
Cc1ccc(S(=O)(=O)N(Cc2cccc(F)c2)c2nc3nc(C)c(Cl)c(C)n3n2)cc1	-13	x	x	100
CC1CN(C(=O)Cc2csc3nc(-c4ccc(Cl)cc4)cn23)CC(C)O1 (stereo unspecified)	-28	106	93	107
O=C(Cn1c(=O)oc2cc(S(=O)(=O)NC3CCCCC3)ccc21)N1CCCCCC1	x	101	100	105
O=C(NCc1ccco1)c1cn(-c2ccccc2)nc1-c1cccnc1	-20	97	72	x
O=C1CC(c2ccc(F)cc2F)c2c(nc(SCc3ccc(F)cc3)[nH]c2=O)N1 (stereo unspecified)	3	x	x	113

Some entries already given, limited to HCMV NEC inh and Sa growth 42C second temp:
SMILES,HCMV NEC inh,Sa growth 42C second temp
Cc1ccc(S(=O)(=O)N(Cc2cccc(F)c2)c2nc3nc(C)c(Cl)c(C)n3n2)cc1,-13,x
CC1CN(C(=O)Cc2csc3nc(-c4ccc(Cl)cc4)cn23)CC(C)O1 (stereo unspecified),-28,93
O=C(Cn1c(=O)oc2cc(S(=O)(=O)NC3CCCCC3)ccc21)N1CCCCCC1,x,100

Additional entries.
SMILES	HCMV NEC inh	Sa growth 42C	Sa growth 42C second temp	GIV-Gai inh
COc1ccc(CCN2C(=O)N(c3ccc(F)cc3)C(=O)C2CC(=O)Nc2ccc(F)c(F)c2)cc1 (stereo unspecified)	-39	105	84	99
CCN(CC)CCCNC(=O)c1ccc2c(c1)sc1nc(-c3ccc(C)cc3)cn12	x	102	81	107
O=S1(=O)CC(O)C(S(=O)(=O)c2ccccc2)C1 (stereo unspecified)	0	96	101	105
Cc1nn(-c2ccccc2)c2sc(C(=O)NCCCn3ccnc3)cc12	14	101	102	x
CC(=O)N1c2ccc(S(=O)(=O)N3CCCC3)cc2CC1C(=O)N1CCN(Cc2ccccc2)CC1 (stereo unspecified)	-30	102	79	101
CCN(C(=O)CSc1cccc[n+]1[O-])c1ccccc1	-13	90	86	x
O=c1ccc(N2CCN(S(=O)(=O)c3cccc4nsnc34)CC2)nn1-c1ccc(F)cc1	-76	x	x	105
CCOC(=O)C1=C(NC(=O)CSc2nnnn2-c2ccccc2)SC2CN(C)CCC12 (stereo unspecified)	-9	114	95	127
CCOc1cccc2sc(NC(=O)CS(=O)(=O)c3ccc(C)cc3)nc12	x	127	84	97
O=C(CSc1nnnn1-c1ccccc1)NC(C(=O)O)(c1ccccc1)c1ccccc1	-10	106	99	x
COc1ccc(OCc2nc(-c3ccc(OC)c(OC)c3)no2)cc1	-10	106	89	101
COc1ccc(C(=O)C(C)OC(=O)Cn2c(CS(C)(=O)=O)nc3ccccc32)cc1 (stereo unspecified)	-6	84	97	x
Cc1ccc(CC(=O)N2CCOCC2)cc1	2	88	92	x
Clc1ccc(-c2nc(CN3CCOCC3)cs2)cc1	3	103	101	106
CCc1nnc(NC(=O)c2cc(=O)c3cc(C)ccc3o2)s1	-34	100	82	103
CC1CCCN(S(=O)(=O)c2ccc(S(=O)(=O)N(Cc3ccc4c(c3)OCO4)Cc3ccccc3F)cc2)C1 (stereo unspecified)	10	x	x	101

Whole records from above.
Results for Clc1ccc(-c2nc(CN3CCOCC3)cs2)cc1 : HCMV NEC inh = 3; Sa growth 42C = 103; Sa growth 42C second temp = 101; GIV-Gai inh = 106
Results for Cc1ccc(CC(=O)N2CCOCC2)cc1 : HCMV NEC inh = 2; Sa growth 42C = 88; Sa growth 42C second temp = 92; GIV-Gai inh = x

Continued.
SMILES	HCMV NEC inh	Sa growth 42C	Sa growth 42C second temp	GIV-Gai inh
CCc1ccc(NC(=O)CCc2nnc3n(C)c(=O)c4sccc4n23)cc1	3	98	95	105
COc1ccc(C(=O)NC2(C(F)(F)F)C(=O)Nc3c2c(=O)[nH]c(=O)n3CCc2ccc(OC)c(OC)c2)cc1 (stereo unspecified)	-17	101	87	104
O=c1/c(=C/c2ccc(N3CCOCC3)cc2)sc2nc3ccccc3n12	-2	86	100	x
CCCC(=O)Nc1ccc(OC)c(CN2CCn3c(nc4ccccc43)C2)c1	-19	x	x	95
CC1CC(C)CN(C(=O)c2ccc3c(c2)N(C)C(=O)/C(=C/c2cccc(Cl)c2)S3)C1 (stereo unspecified)	x	101	90	104
Cn1c(=O)c2c(nc(SCc3ccc(C(=O)O)cc3)n2C)n(C)c1=O	-14	86	77	103
O=C(Cn1cc(S(=O)(=O)Cc2ccccc2Cl)c2ccccc21)NCc1ccccc1Cl	x	109	82	105
CN(C)c1ccc(C(=O)NCCn2c(-c3ccccc3)nc3cccnc32)cc1	-1	x	x	108
